VDR inh: inhibitors of human vitamin D receptor | VDR-SRC2-3 peptide fluorescence polarization, 2 h | Potency, µM, for inactives: max response, negative = inhibition, hits mostly inhibitors | 0.93% of 400,000 active; active means well fitted inhibition curve with a large enough effect; inconclusive means small, poorly fitted or top-dose-only effect, or another doubt; inactive means no such curve, though single readings can be large or run the other way; further: series mostly up to about 120 µM
Target sequence (P11473 whole entry, looked up): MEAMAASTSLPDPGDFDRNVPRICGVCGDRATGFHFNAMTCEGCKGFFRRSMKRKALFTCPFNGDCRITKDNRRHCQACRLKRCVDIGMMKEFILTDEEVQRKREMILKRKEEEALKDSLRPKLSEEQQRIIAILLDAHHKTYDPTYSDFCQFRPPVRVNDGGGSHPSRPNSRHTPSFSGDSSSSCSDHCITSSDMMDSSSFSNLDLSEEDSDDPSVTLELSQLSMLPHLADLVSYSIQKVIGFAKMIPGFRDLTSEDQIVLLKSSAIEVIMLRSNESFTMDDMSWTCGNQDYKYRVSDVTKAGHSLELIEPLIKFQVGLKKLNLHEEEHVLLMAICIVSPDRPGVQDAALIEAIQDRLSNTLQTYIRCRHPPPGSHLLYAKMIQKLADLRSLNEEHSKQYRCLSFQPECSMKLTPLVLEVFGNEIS
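Fluorescence polarization assay of small-molecule disruption of VDR binding to coregulator peptide SRC2-3. Compounds and controls pin-transferred, then read after 2 h incubation at ambient room temperature.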
* hit, by the source's call; ? = inconclusive; & = joins results of further samples; [ ] = remark or other dose. On the % scale 0 is the no-effect control and ±100 the full control effect; potency means the concentration at half of the fitted maximal effect.

SMILES: CCOC(=O)C1=C(C)N=C2SCCC(=O)N2C1c1ccc(C(=O)OC)cc1 (stereo not given)
  VDR inh: -11%

SMILES: CCOC(=O)c1cc(C(=O)OCC)c(=O)[nH]c1SCc1ccccc1
  VDR inh: 9%

SMILES: S=c1[nH]nc(COc2ccccc2)n1/N=C/c1ccc(Cl)cc1
  VDR inh: ?

SMILES: CC(=O)N1CCc2cc(S(=O)(=O)NC3CCCCC3)ccc21
  VDR inh: 6%

SMILES: CC(C)Oc1ccc(OCCn2c(=S)[nH]c3c(N)ncnc32)cc1
  VDR inh: -1%

SMILES: COc1ccccc1N1CCN(c2csc3ccccc3c2=O)CC1
  VDR inh: 6%

SMILES: O=C(O)Cn1c(SCCOc2ccc(Cl)cc2)nc2ccccc21
  VDR inh: -12%

SMILES: O=C(Nc1nccs1)c1ccc(-c2ccc(F)c(Cl)c2)o1
  VDR inh: 5%

SMILES: Cc1ccc2nc(-c3ccccc3)cc(C(=O)O)c2c1
  VDR inh: 2%

SMILES: Cc1ccc(CN2C(=O)COc3cc(NS(C)(=O)=O)ccc32)cc1
  VDR inh: -4%

SMILES: Cc1ccc(SCc2noc(C(=O)NCC3CCCO3)c2C(=O)O)cc1C (stereo not given)
  VDR inh: -23%

SMILES: COc1cc(CNc2ccc(N3CCOCC3)cc2)ccc1OCC(=O)NC(C)(C)C
  VDR inh: -19%

SMILES: COc1cc2c(cc1OC)CN(C(=O)CSc1ccccc1C)CC2
  VDR inh: -30%

SMILES: CCC(=O)NC(c1cc(Cl)c2ccccc2c1O)C1CC1 (stereo not given)
  VDR inh: -6%

SMILES: Nc1[nH]n(-c2ccccc2)c(=O)c1N=Nc1ccc2c(c1)OCO2
  VDR inh: ?

Brought forward from above: 3 compounds, then new ones.
SMILES: COc1cc2c(cc1OC)CN(C(=O)CSc1ccccc1C)CC2
  VDR inh: -30%

SMILES: CCC(=O)NC(c1cc(Cl)c2ccccc2c1O)C1CC1 (stereo not given)
  VDR inh: -6%

SMILES: Nc1[nH]n(-c2ccccc2)c(=O)c1N=Nc1ccc2c(c1)OCO2
  VDR inh: ?

SMILES: C=CCn1c(CNC(=O)c2ccco2)nnc1SCC(=O)c1ccc(OC)cc1
  VDR inh: -12%

SMILES: CCCN(CCC)C(=O)c1cc([N+](=O)[O-])cc2c1-c1ccc([N+](=O)[O-])cc1C2=C(C#N)C#N
  VDR inh: 40µM*

SMILES: CCc1c(C)c2ccc(O)c(CN3CCN(c4ccc(F)cc4)CC3)c2oc1=O
  VDR inh: 7%

SMILES: CCCC(CCC)n1[nH]c(=O)c2c(C)cc(C)nc21
  VDR inh: 2%

SMILES: CC(=O)Nc1ccc(-n2cnnn2)cc1
  VDR inh: -7%

SMILES: CCCCOC(=O)c1ccc(NC(=O)COC(=O)CN2C(=O)NC3(CCCC3)C2=O)cc1
  VDR inh: 13%

SMILES: CC(C)(C)NC(=O)C[C@H]1C[C@H](C(=O)N2CCOCC2)[C@@]2(C)c3[nH]c4cc(-c5ccco5)ccc4c3CCN2C1=O
  VDR inh: -1%

SMILES: COc1ccc(C)cc1N(C(=O)c1ccccc1F)c1nc2ccccc2s1
  VDR inh: -11%

SMILES: CCn1c(=O)c(C(=O)NCCc2ccc(Cl)cc2)c(O)c2ccccc21
  VDR inh: -13%

SMILES: COc1ccc(C(=O)COC(=O)c2cccc(-n3cnnn3)c2)c(OC)c1
  VDR inh: -7%

SMILES: COC(C/C=C\C(=O)[C@H](C)OCc1ccccc1)OC
  VDR inh: -22%

SMILES: CC(=O)c1c(C)[nH]c(C(=O)OCC(=O)N2CCc3ccccc32)c1C
  VDR inh: 7%

SMILES: Nc1nonc1-n1nnc(C(=O)N/N=C/c2ccccn2)c1-c1ccccc1
  VDR inh: 17%

SMILES: COCCNC(=O)CCCN1C(=O)CCn2nc(-c3cccn3C)cc21
  VDR inh: 8%

SMILES: COCCOC(=O)c1c(C)oc2ccc(NS(=O)(=O)c3ccc(F)cc3)cc12
  VDR inh: -26%

Some of the entries above, set out differently:
VDR inh	Molecule
7%	CCc1c(C)c2ccc(O)c(CN3CCN(c4ccc(F)cc4)CC3)c2oc1=O
-7%	COc1ccc(C(=O)COC(=O)c2cccc(-n3cnnn3)c2)c(OC)c1

More entries.
SMILES: N#Cc1cc([N+](=O)[O-])ccc1NC(=O)CSc1n[nH]c(=O)[nH]c1=O
  VDR inh: 15%

SMILES: Cc1ccc(S(=O)(=O)N2CCC(C(=O)OCCOc3ccccc3)CC2)cc1C
  VDR inh: -17%

SMILES: NC(=O)CC(NC(=O)Cc1cccc2ccccc12)c1ccc(NCCc2cccc(F)c2)c([N+](=O)[O-])c1 (stereo not given)
  VDR inh: -10%

SMILES: O=C(NCCCCc1ccccc1)c1cccc(Br)c1
  VDR inh: 2%

SMILES: O=C(NC1CCCC1)c1cccc(S(=O)(=O)Nc2ccccc2F)c1
  VDR inh: -6%

SMILES: Cc1ccc(NC(=O)c2ccc(NS(=O)(=O)/C=C/c3ccccc3)cc2)nc1
  VDR inh: -4%

SMILES: O=C(N/N=C/c1cccnc1)c1ccccc1NS(=O)(=O)c1cccs1
  VDR inh: 1%

SMILES: Cc1ccc(C(=O)NCCSc2snnc2C)cc1
  VDR inh: 13%

SMILES: CN(c1ccccc1)c1nc(N)c([N+](=O)[O-])c(Nc2ccccc2F)n1
  VDR inh: 11%

SMILES: CC(=O)c1sc(N/N=C2\CC3CCC2(C)C3(C)C)nc1C (stereo not given)
  VDR inh: -12%

SMILES: CCOc1cc(C)ccc1OCc1nnc(SCC(=O)c2cccc([N+](=O)[O-])c2)n1CC
  VDR inh: 3%

SMILES: Cc1cc(=O)oc2c(CN3CCN(C)CC3)c(O)c(Cl)cc12
  VDR inh: -5%

SMILES: O=C(CSc1nnc(-c2ccco2)c(-c2ccco2)n1)c1ccccc1
  VDR inh: ?

SMILES: O=S(=O)(Nn1cnnc1)c1ccccc1
  VDR inh: -1%

SMILES: COc1ccccc1N1CCN(CC(O)COc2ccc3c(c2)OCO3)CC1 (stereo not given)
  VDR inh: -11%

SMILES: COc1ccc(-n2nc(C(=O)NCCCN3CCCC3=O)c3c4ccccc4n(C)c3c2=O)cc1Cl
  VDR inh: -25%

SMILES: Cc1cc(Br)cn2ccnc12
  VDR inh: -3%

SMILES: Cc1nc(SCc2nc3ccccc3[nH]2)c2oc3ccc(Br)cc3c2n1
  VDR inh: -7%

SMILES: OCCC#Cc1ccc(CN2CCN(CCc3ccccc3)C(CCO)C2)cc1 (stereo not given)
  VDR inh: 9%

SMILES: CN(C)CCCNC(=O)C[C@H]1C[C@H](C(=O)N2CCCCC2)[C@@]2(CCc3ccccc3)c3[nH]c4cc(-c5ccco5)ccc4c3CCN2C1=O
  VDR inh: 8%

SMILES: CCn1c(SCC(=O)N2CCCCC2)nc2c(c1=O)SC(C)C2 (stereo not given)
  VDR inh: 1%

SMILES: CNC(=O)c1[nH]cnc1C(=O)Nc1ccc(Cl)cc1
  VDR inh: -1%

SMILES: O=C(Cn1c(=O)n(-c2ccccc2Cl)c(=O)c2sc3ccccc3c21)NC1CCCCC1
  VDR inh: 12%

SMILES: Cc1noc(C)c1CSc1nnnn1-c1ccc(Cl)cc1
  VDR inh: -7%

SMILES: NC(=O)N/N=C/c1cc(Br)ccc1OCC(=O)NCc1ccccc1
  VDR inh: -1%

SMILES: CCOC(=O)C(CC)Sc1ncnc2c1c(-c1ccccc1)cn2-c1ccc(OC)cc1 (stereo not given)
  VDR inh: ?

SMILES: COc1cccc(C(=O)COc2ccc3c(C)c(Cc4ccccc4)c(=O)oc3c2)c1
  VDR inh: -3%

SMILES: COc1cc(Cl)c(C)cc1NC(=O)CSc1nc2c(c(=O)[nH]1)CCC2
  VDR inh: 6%

SMILES: O=C(CN1CCOCC1)Nc1cc(Cl)ccc1Cl
  VDR inh: -4%

SMILES: Cc1cccc(-n2c(CNC(=O)c3ccc(S(=O)(=O)N4CCCC4)cc3)n[nH]c2=S)c1
  VDR inh: 10%

SMILES: CC(C)c1ccc(S(=O)(=O)NC2CCS(=O)(=O)C2)cc1 (stereo not given)
  VDR inh: -7%

SMILES: COc1ccc(-n2ncc3c(NCC4CCCO4)ncnc32)cc1 (stereo not given)
  VDR inh: 23%

SMILES: Cc1ccc(NS(=O)(=O)c2ccc3oc(=O)c4ncn(C)c4c3c2)cc1C
  VDR inh: -3%

SMILES: CCCSc1nc2c(cnn2-c2ccc(F)cc2)c(=O)[nH]1
  VDR inh: 26%

SMILES: CC1CC(Nc2ccccc2)c2ccccc2N1C(=O)c1ccco1 (stereo not given)
  VDR inh: 6%

SMILES: c1ccc(N/N=C(\Cc2nc3ccccc3[nH]2)c2ccccc2)cc1
  VDR inh: ?

SMILES: CCC(=O)Oc1ccc(C(=O)Nc2ccc([N+](=O)[O-])cc2)cc1
  VDR inh: 32%[activator]

SMILES: Cn1c(Cc2ccccc2)nnc1SCC(=O)NC1CC1
  VDR inh: 10%

SMILES: CCOc1ccccc1N1CC(C(=O)Nc2ccccc2N2CCOCC2)CC1=O (stereo not given)
  VDR inh: -7%

SMILES: Cc1cc(C)nc(SCC(=O)N2CCC(C(N)=O)CC2)n1
  VDR inh: 3%

SMILES: COc1c2c(cc3ccc(=O)oc13)CCO2
  VDR inh: -7%

SMILES: Cc1ccc(CN2C(=O)CCC2C(=O)NCCCN2CCOCC2)cc1 (stereo not given)
  VDR inh: 7%

SMILES: CC(=O)C12CCCCC1CC1[C@@H]3CC(C)C4=CC(=O)CC[C@]4(C)C3CC[C@@]12C (stereo not given in full)
  VDR inh: 4%

SMILES: Oc1c(C(Nc2ccccn2)c2ccccc2F)ccc2cccnc12 (stereo not given)
  VDR inh: -11%

SMILES: CC(C)(C)[C@H]1C=C(C(=O)NC2CC2)O[C@@H](OCc2ccc(CO)cc2)C1
  VDR inh: 20%

Structures above with a nitro group on carbon (6):
SMILES: CCCN(CCC)C(=O)c1cc([N+](=O)[O-])cc2c1-c1ccc([N+](=O)[O-])cc1C2=C(C#N)C#N
  VDR inh: 40µM*

SMILES: N#Cc1cc([N+](=O)[O-])ccc1NC(=O)CSc1n[nH]c(=O)[nH]c1=O
  VDR inh: 15%

SMILES: NC(=O)CC(NC(=O)Cc1cccc2ccccc12)c1ccc(NCCc2cccc(F)c2)c([N+](=O)[O-])c1 (stereo not given)
  VDR inh: -10%

SMILES: CN(c1ccccc1)c1nc(N)c([N+](=O)[O-])c(Nc2ccccc2F)n1
  VDR inh: 11%

SMILES: CCOc1cc(C)ccc1OCc1nnc(SCC(=O)c2cccc([N+](=O)[O-])c2)n1CC
  VDR inh: 3%

SMILES: CCC(=O)Oc1ccc(C(=O)Nc2ccc([N+](=O)[O-])cc2)cc1
  VDR inh: 32%[activator]

(more compounds)
SMILES: CCCN1CC=C2C(C#N)=C(N)C(C#N)(C#N)C(c3cc(OC)ccc3OC)C2C1 (stereo not given)
  VDR inh: -15%

SMILES: COc1ccc(NC(=O)Cn2c(=O)n(Cc3nc(-c4ccccc4)no3)c(=O)c3cc4c(cc32)OCO4)c(OC)c1
  VDR inh: 18%

SMILES: CC(=O)c1ccc(N(CC(=O)NC2CCCC2)C(=O)c2csnn2)cc1
  VDR inh: -1%

SMILES: Nc1sc2c(c1C(=O)NC1CCS(=O)(=O)C1)CCCC2 (stereo not given)
  VDR inh: ?

SMILES: C=CCc1c(C)nc(C)nc1N/N=C/c1ccc([N+](=O)[O-])cc1
  VDR inh: 5%

SMILES: CC(C)N(Cc1nc(-c2ccccc2)no1)S(=O)(=O)c1ccccc1
  VDR inh: -5%

SMILES: CCC(C(=O)NNC(=O)c1cnccn1)c1ccccc1 (stereo not given)
  VDR inh: 0%

SMILES: CN(CC(=O)Nc1ncn[nH]1)S(=O)(=O)c1cc(Cl)ccc1Cl
  VDR inh: 0%

SMILES: COC(=O)c1ccc2c(c1)N(Cc1cc(C)ccc1C)C(=O)c1ccccc1S2(=O)=O
  VDR inh: 5%

SMILES: Cc1cc(OCc2cc(C(=O)N3CCN(CC4CC4)CC3)no2)cc(C)c1Cl
  VDR inh: -6%

SMILES: CCOc1ccc(N2C(=O)Nc3ccc(Br)cc3C2(O)C(=O)NCCN(C)C)cc1 (stereo not given)
  VDR inh: -7%

SMILES: O=C1Nc2cc(Cl)ccc2Nc2cscc21
  VDR inh: ?

SMILES: CCC(C)N(C(=O)Cn1nnc2ccccc21)C(C(=O)NCc1ccco1)c1cccc(OC)c1 (stereo not given)
  VDR inh: 5%

SMILES: CCCCCN(C(=O)NC(=O)Nc1cccc(C)c1C)S(C)(=O)=O
  VDR inh: -1%

SMILES: O=C(CSc1n[nH]c(-c2ccco2)n1)Nc1sc2c(c1C(=O)Nc1ccccc1)CCCC2
  VDR inh: 10%

SMILES: CN1CCc2c(OCC(=O)NC3CCCCC3)cccc2C1=O
  VDR inh: 4%

SMILES: CCNc1nc(NCC)nc(C(=O)Nc2ccccc2)n1
  VDR inh: 14%

SMILES: Cc1cc(=O)[nH]c(SCC(=O)NC(c2ccccc2)c2ccccc2)n1
  VDR inh: -10%

SMILES: O=C(Nc1cccc2ncccc12)c1ccc(F)cc1
  VDR inh: -12%

SMILES: O=C(NNC(=S)NC(=O)c1ccccc1)c1cccnc1
  VDR inh: -5%

SMILES: Cc1cccc(/C=N/n2c(C)nc3ccccc3c2=O)c1
  VDR inh: -9%

SMILES: CCOc1ccc(NC(=O)Nc2c(C)n(C)n(-c3ccccc3)c2=O)cc1
  VDR inh: -5%&-17%

SMILES: Cn1cc(C(c2ccccn2)c2cn(C)c3ccccc23)c2ccccc21
  VDR inh: 31%[activator]

SMILES: CCN(c1ccc(OC)cc1)S(=O)(=O)c1ccc2c(c1)CC(C)N2C(=O)C1CC1 (stereo not given)
  VDR inh: 21%

SMILES: C/C=C(\C)CN1CCN(c2cccc(C)c2C)CC1
  VDR inh: -2%

SMILES: COc1cccc(CNC(=O)c2ccc(Cl)c(NC3=NC4CS(=O)(=O)CC4S3)c2)c1 (stereo not given)
  VDR inh: -5%

SMILES: O=C(OCC(=O)N1CCOCC1)c1ccccc1O
  VDR inh: -7%

Not all compounds are listed; count on the stated rates, not on these rows.
